Screening data from PubChem.
Mtb growth: Mycobacterium tuberculosis H37Rv growth inhibition, cell based, confirmatory dose response (AID 1949); inhibition, % at 10 µg/mL, or IC50 in µg/mL where a hit was titrated; most inactive calls were filed without a number and no value below 0 was filed; 100,000 compounds, 1.6% hits;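 active = confirmed in a dose series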;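 note: bacteria grown 7 days with compound before Alamar blue readout; 0% = untreated bacteria and 100% = reference antibiotic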
The depositor's hits bear a star. Only part of the results is shown, so the mix of outcomes need not match the whole.

Preview (3 entries):
Results for CC(C)c1ccc2oc(-c3ccc(NC(=S)NC(=O)c4cccnc4)cc3)nc2c1 ?
Mtb growth: inactive

How did Cc1nn(-c2ccccc2)c(OC(=O)C(C)C)c1Sc1ccccc1[N+](=O)[O-] do in these assays?
Mtb growth: 0%

What do the screens show for `CCn1c(-c2ccc(OC)c(OC)c2)n[nH]c1=S`?
Mtb growth: inactive

This part in full (from the top)
Results for CC(C)c1ccc2oc(-c3ccc(NC(=S)NC(=O)c4cccnc4)cc3)nc2c1 ?
Mtb growth: inactive

How did Cc1nn(-c2ccccc2)c(OC(=O)C(C)C)c1Sc1ccccc1[N+](=O)[O-] do in these assays?
Mtb growth: 0%

What do the screens show for `CCn1c(-c2ccc(OC)c(OC)c2)n[nH]c1=S`?
Mtb growth: inactive

Results for O=C1CC(N2CCOCC2)C(=O)N1Cc1ccccc1 (stereo unspecified) ?
Mtb growth: inactive

Results for CC(C)OC(=O)c1ccc(Nc2ncnc3ccc(Br)cc23)cc1 ?
Mtb growth: 2%

What do the screens show for `Cc1nnc(SCC(N)=O)c2ccccc12`?
Mtb growth: 0%

What do the screens show for `Cc1ccc(C(=O)OC2CSC2)cc1`?
Mtb growth: 6%

How did O=C(Nc1nc(-c2ccccc2)ns1)c1ccccc1F do in these assays?
Mtb growth: inactive

What do the screens show for `COC(=O)c1ccc(/C=N/NC(=O)c2cc(-c3ccc(OC)cc3)n[nH]2)cc1`?
Mtb growth: inactive

How did CC12CCC(C(=O)Nc3ccccc3C(F)(F)F)(OC1=O)C2(C)C (stereo unspecified) do in these assays?
Mtb growth: inactive

How did COCc1nnc(SCC(=O)Nc2cc(OC)ccc2OC)n1-c1cccc2ccccc12 do in these assays?
Mtb growth: inactive

How did COc1ccc(Cc2nnc(NC(=O)CCCc3ccccc3)s2)cc1OC do in these assays?
Mtb growth: 1%

How did CCOC(=O)c1c(C)oc2cc(Br)c(OC(=O)c3ccc([N+](=O)[O-])cc3)cc12 do in these assays?
Mtb growth: 32%

What do the screens show for `O=C(CCNc1cccc(Cl)c1)c1ccco1`?
Mtb growth: 3.7µg/mL*

How did CCCC(C)C(=O)N1CCN(Cc2ccccc2)CC1 (stereo unspecified) do in these assays?
Mtb growth: inactive

Results for C=CCn1c(CNC(=O)c2ccc(OC)cc2)nnc1SCC(=O)NCc1ccccc1 ?
Mtb growth: inactive

What do the screens show for `COc1ccc(C(=O)c2ccc(F)c(F)c2)cc1Br`?
Mtb growth: inactive

Results for S=c1[nH]nc(-c2ccncc2)n1-c1ccc(Oc2ccccc2)cc1 ?
Mtb growth: inactive

Results for Cc1cc(Br)ccc1OCCNCCN ?
Mtb growth: inactive

Results for Cc1ccc(CSCC(=O)Nc2ccc(C(N)=O)cc2)cc1 ?
Mtb growth: inactive

How did CCCCc1cc(=O)oc2cc(OCC(=O)c3ccccc3)ccc12 do in these assays?
Mtb growth: inactive

How did Cc1cccc(OCCSc2cc(C)nc(N)n2)c1 do in these assays?
Mtb growth: inactive

What do the screens show for `CCOc1ccc(C(=O)N2CCOCC2)cc1OC`?
Mtb growth: inactive

How did CN(CCO)CCOCCOc1ccc(F)cc1 do in these assays?
Mtb growth: inactive

Results for COC(=O)c1c(NC(=S)Nc2cnccn2)sc2c1CCC2 ?
Mtb growth: inactive

Results for O=C(NCC1CCCCC1)C(=O)Nc1ccc(F)cc1 ?
Mtb growth: inactive

What do the screens show for `CCOc1ccccc1N(CC(=O)NCc1ccccc1Cl)S(=O)(=O)c1ccc(Cl)cc1`?
Mtb growth: inactive

Results for CCOC(=O)c1c(-c2cccs2)csc1NC(=O)c1cccc(N2C(=O)CCC2=O)c1 ?
Mtb growth: inactive

Results for CCC(=O)Nc1ccc(OC)cc1OC ?
Mtb growth: 11%

How did CCC(C)NC(=O)c1ccccc1NC(=O)CN(c1cccc(OC)c1)S(C)(=O)=O (stereo unspecified) do in these assays?
Mtb growth: inactive

How did O=C(NCc1cccnc1)C(F)(F)C(F)(F)C(F)(F)C(=O)NCc1cccnc1 do in these assays?
Mtb growth: 2%

How did O=C(Cc1ccccc1)NCCC12CC3CC(CC(C3)C1)C2 do in these assays?
Mtb growth: inactive

Results for CCCS(=O)(=O)N1CCN(Cc2ccccc2Br)CC1 ?
Mtb growth: inactive

Results for Cc1ccc(-c2c3c(=O)n(C)c(=O)n(C)c3c3c(C)nc4ccccc4n23)cc1 ?
Mtb growth: 0%

How did CCOC(=O)C1CCCN(S(=O)(=O)c2ccc(Br)s2)C1 (stereo unspecified) do in these assays?
Mtb growth: inactive

Results for CS(=O)(=O)N(CC(=O)N1CCC(C(N)=O)CC1)c1ccc(Cl)cc1 ?
Mtb growth: inactive

What do the screens show for `COc1cc(OC)cc(C(=O)N2CCN(Cc3ccc(Cl)cc3)CC2)c1`?
Mtb growth: inactive

Results for O=C1NC(=O)c2c(NC(=O)C3CCCO3)cccc21 (stereo unspecified) ?
Mtb growth: 3%

How did CCN(CC(=O)NCC1CCCO1)S(=O)(=O)c1ccc(C)cc1 (stereo unspecified) do in these assays?
Mtb growth: inactive

What do the screens show for `CC(C)Oc1ccc(C(=O)Nc2ccc(Cl)cc2C(F)(F)F)cc1`?
Mtb growth: inactive

Results for Cc1ccc2nc(SCc3ccccc3F)[nH]c2c1 ?
Mtb growth: inactive

What do the screens show for `Cc1ccc(-n2nc3cc(C)c(NC(=S)NC(=O)c4cc5ccccc5o4)cc3n2)cc1`?
Mtb growth: inactive

What do the screens show for `CC(=O)NC(C)c1nc2ccccc2n1Cc1ccccc1Cl` (stereo unspecified)?
Mtb growth: 4%

How did COC(CNS(=O)(=O)c1ccccc1)c1ccccc1 (stereo unspecified) do in these assays?
Mtb growth: inactive

What do the screens show for `COC(=O)C1=CN(CCc2ccc(OC)cc2)C=C(C(=O)OC)C1c1cc(C)ccc1C`?
Mtb growth: inactive

What do the screens show for `O=S(=O)(Nc1ncccn1)c1ccc(NC(=S)NC2CCN(Cc3ccccc3)CC2)cc1`?
Mtb growth: inactive

Results for O=C(CSc1nc(-c2ccccc2)c(-c2ccccc2)[nH]1)Nc1nccs1 ?
Mtb growth: 1%

How did N#C/C(=C/c1ccc2c(c1)OCCO2)c1ccc(F)cc1 do in these assays?
Mtb growth: inactive

What do the screens show for `Cc1ccc(-c2csc(NC(=O)c3ccccc3F)n2)c(C)c1`?
Mtb growth: inactive

What do the screens show for `COc1ccc(OC)c(NC(=O)c2c(NC(=O)c3cccc(F)c3)sc3c2CCCC3)c1`?
Mtb growth: inactive

Pulled by compound from the list above, 3 records:
How did N#C/C(=C/c1ccc2c(c1)OCCO2)c1ccc(F)cc1 do in these assays?
Mtb growth: inactive

What do the screens show for `COC(=O)C1=CN(CCc2ccc(OC)cc2)C=C(C(=O)OC)C1c1cc(C)ccc1C`?
Mtb growth: inactive

What do the screens show for `O=S(=O)(Nc1ncccn1)c1ccc(NC(=S)NC2CCN(Cc3ccccc3)CC2)cc1`?
Mtb growth: inactive

Later entries.
What do the screens show for `O=C(O)CSc1nnc(-c2sc3ccccc3c2Cl)n1-c1ccccc1`?
Mtb growth: inactive

How did Cc1cccc(NC(=S)NNC(=S)Nc2ccc(F)cc2F)c1C do in these assays?
Mtb growth: inactive

Results for COC(=O)c1ccc(CN(c2ccc(C)c(C)c2)S(C)(=O)=O)cc1 ?
Mtb growth: inactive

What do the screens show for `O=C(Cn1cc(C(=O)c2ccccc2F)c2ccccc21)NCc1cccs1`?
Mtb growth: inactive

What do the screens show for `Cc1ccc2oc(=O)n(S(C)(=O)=O)c2c1`?
Mtb growth: inactive

What do the screens show for `CCCCNS(=O)(=O)c1ccc(NC(=O)C(Sc2ccccc2)c2ccccc2)cc1` (stereo unspecified)?
Mtb growth: 3%

Results for O=C(NC(=S)Nc1ccc(C(=O)O)c(Cl)c1)c1cc2ccccc2o1 ?
Mtb growth: inactive

How did Cc1cc(=O)oc2cc(OCCSc3nnc(-c4ccc(Br)cc4)o3)ccc12 do in these assays?
Mtb growth: inactive

What do the screens show for `COc1ccc(NS(=O)(=O)c2cc(Cl)ccc2Cl)cc1Cl`?
Mtb growth: 8%

How did CCCCOc1ccc(C(=O)N2CCN(C)CC2)cc1 do in these assays?
Mtb growth: inactive

What do the screens show for `O=C(CCc1ccccc1)Nc1nnc(SCc2c(Cl)cccc2Cl)s1`?
Mtb growth: inactive

What do the screens show for `Oc1ccc(-c2csc(Nc3ccccn3)n2)c(O)c1`?
Mtb growth: inactive

Results for CC(=O)c1ccc(NC(=S)NC(C)CCc2ccccc2)cc1 (stereo unspecified) ?
Mtb growth: inactive

Results for O=C(NC(=S)NC1CCCCC1)c1ccccc1Br ?
Mtb growth: 1%

Results for COc1c(-c2cc(C(F)(F)F)[nH]n2)c(O)c(OC)c2occc12 ?
Mtb growth: inactive

Results for CC(=O)c1cccc(-n2c(N)c(C#N)c3nc4ccccc4nc32)c1 ?
Mtb growth: inactive

Results for COc1cc(Cl)c(S(=O)(=O)N2CCCCC2)cc1Cl ?
Mtb growth: inactive

What do the screens show for `O=C(CCN1C(=O)c2cccc3cccc(c23)C1=O)N1CCN(c2ccccc2F)CC1`?
Mtb growth: inactive

How did O=C(NCc1cccc(Oc2ccccc2)c1)c1ccc([N+](=O)[O-])cc1 do in these assays?
Mtb growth: inactive

Results for O=C(NC(=S)Nc1ccc(O)c(-c2nc3ccccc3s2)c1)c1cccs1 ?
Mtb growth: 5%

What do the screens show for `Clc1ccc(-c2nc(-c3ccncc3)no2)c(Cl)c1`?
Mtb growth: 2%

What do the screens show for `Cc1cccc(NC(=O)c2ccc([N+](=O)[O-])cc2)c1C`?
Mtb growth: inactive

What do the screens show for `COc1cc(NC(=S)N2CCC(O)CC2)cc(OC)c1`?
Mtb growth: inactive

How did CCc1sc(N(C(=O)Cc2ccccc2)c2ccccc2C)nc1-c1ccc(OC)cc1 do in these assays?
Mtb growth: 9%

How did O=C(N1CCN(c2ccccc2)CC1)C1(S(=O)(=O)c2ccccc2)CC1 do in these assays?
Mtb growth: inactive

How did Cc1cc(Br)cc(C)c1OC(=O)C1CCCCC1 do in these assays?
Mtb growth: inactive

What do the screens show for `Cc1nc2c(o1)N(c1cccnc1)C(N)=C(C#N)C2c1ccccc1` (stereo unspecified)?
Mtb growth: inactive

What do the screens show for `Cc1ccc(S(=O)(=O)N(C)c2ccc(C(=O)Nc3ccccc3Br)cc2)cc1`?
Mtb growth: inactive

Results for CCc1ccccc1NC(=O)C(=O)NCc1ccccc1Cl ?
Mtb growth: inactive

Results for COc1ccc(-c2nnc(SCc3c(Cl)cccc3Cl)o2)cc1 ?
Mtb growth: inactive

Results for COc1ccc(Cl)cc1CN1CCCCC1 ?
Mtb growth: inactive

How did COC(=O)CC1C(=O)NCCN1C(=O)Nc1cccc(Cl)c1 (stereo unspecified) do in these assays?
Mtb growth: 2%

How did Cc1cc(Br)ccc1OCC(=O)Nc1ccccc1Cl do in these assays?
Mtb growth: inactive

What do the screens show for `CCCCOc1c(Br)cc(C2NC(=S)NC(C)=C2C(=O)OC)cc1OC` (stereo unspecified)?
Mtb growth: 1%

Results for Cc1ccc(S(=O)(=O)N(Cc2ccccc2)CC(C)C(=O)O)cc1 (stereo unspecified) ?
Mtb growth: inactive

Results for N#C/C(=C/c1ccc(Br)o1)c1ccc(Cl)cc1 ?
Mtb growth: inactive

Results for CC(C)c1ccc(C(=O)Nc2ccccc2OC(F)F)cc1 ?
Mtb growth: inactive

How did COc1ccc(CNCCC(c2ccc(F)cc2)c2ccco2)cc1OC (stereo unspecified) do in these assays?
Mtb growth: 1%

How did N/C(Cc1cccc2ccccc12)=N\OC(=O)c1ccccc1F do in these assays?
Mtb growth: inactive

Results for Cc1cc(=O)oc2cc(OCC(=O)c3ccc4ccccc4c3)c(Cl)cc12 ?
Mtb growth: inactive

Molecules listed so far that have a nitro group on carbon (4):
How did Cc1nn(-c2ccccc2)c(OC(=O)C(C)C)c1Sc1ccccc1[N+](=O)[O-] do in these assays?
Mtb growth: 0%

How did CCOC(=O)c1c(C)oc2cc(Br)c(OC(=O)c3ccc([N+](=O)[O-])cc3)cc12 do in these assays?
Mtb growth: 32%

How did O=C(NCc1cccc(Oc2ccccc2)c1)c1ccc([N+](=O)[O-])cc1 do in these assays?
Mtb growth: inactive

What do the screens show for `Cc1cccc(NC(=O)c2ccc([N+](=O)[O-])cc2)c1C`?
Mtb growth: inactive

Further results follow.
What do the screens show for `CS(=O)(=O)N(Cc1ccccc1)c1ccc(C(=O)Nc2ccccc2C(=O)NCCc2ccccc2)cc1`?
Mtb growth: 4%

What do the screens show for `O=C1C2CC=C(Cl)CC2C(=O)N1Cc1ccccc1` (stereo unspecified)?
Mtb growth: inactive

Results for O=C(COc1ccc(-c2ccccc2)cc1)NNC(=O)NC1CCCCC1 ?
Mtb growth: inactive

Results for O=C(Nc1ccc2oc(=O)ccc2c1)C(c1ccccc1)c1ccccc1 ?
Mtb growth: 6%

Results for CC(Cc1ccccc1)NC(=O)c1ccc(Cl)cc1 (stereo unspecified) ?
Mtb growth: inactive

Results for Cc1cc(OCC(=O)Nc2ccc3c(c2)OCCO3)cc(C)c1Br ?
Mtb growth: 7%

How did N#Cc1nc(COc2ccccc2F)oc1N1CCN(C(c2ccccc2)c2ccccc2)CC1 do in these assays?
Mtb growth: 15%

What do the screens show for `O=C(CNC(=O)C1CCCCC1)NNC(=O)c1sc2ccccc2c1Cl`?
Mtb growth: inactive

What do the screens show for `Nc1nc2c(c3c1c(=O)oc1ccccc13)CCCCC2`?
Mtb growth: 2%

Results for CCn1c(Cc2ccccc2)nnc1SCC(=O)Nc1nccs1 ?
Mtb growth: inactive

How did C=CCNCCCCOc1ccc(Cl)cc1C(C)(C)C do in these assays?
Mtb growth: 4.6µg/mL*

How did CCN(CC)S(=O)(=O)c1ccc(Oc2ccccc2C)cc1 do in these assays?
Mtb growth: 2%

Results for CC1(C)CC(=O)C2=C(C1)N(Cc1ccc(F)cc1)C(=O)NC2(C(F)(F)F)C(F)(F)F ?
Mtb growth: inactive

How did Cc1ccc(NC(=O)CSc2nc(C)cc(=O)[nH]2)c(C)c1 do in these assays?
Mtb growth: inactive

How did C=CCNC(CC(=O)Nc1ccc(C)c(Cl)c1)C(=O)O (stereo unspecified) do in these assays?
Mtb growth: inactive

Results for Cc1ccccc1COc1cc2oc(=O)c3c(c2cc1Cl)CCC3 ?
Mtb growth: inactive

What do the screens show for `Cc1nc2ccc(NC(=S)NC(=O)c3cccc4ccccc34)cc2[nH]1`?
Mtb growth: inactive
